PABP polyA inh – PABP-poly(A) binding inhibition | P11940 | inhibition, % at 35 µM | PABP-poly(A) RNA binding, fluorescence polarization | 290,000 compounds, 1% hits;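 active = 50% or more with normal probe brightness, or confirmed in later tests; inconclusive = above 50% with abnormal brightness, or retests that disagree; inactive = below 50% or failed in later tests; about a fifth of its hits are not listed in these tables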;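 note: calls also rest on retests at 20 µM and on dose response follow-up; controls were probe without protein and protein plus probe with vehicle; some compounds called inactive have numbers as strong as hits; many hits fall short of the cut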
HIV Env fusion – blocks HIV Env-driven cell-cell fusion. inhibition, % at 12.3 µM. AID 651610. 360,000 compounds, 1.1% hits. HeLa-JRFL Env/CEM21 cell fusion, luciferase;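 active = mean replicate inhibition score of at least 50 and every replicate individually at or above 50; inconclusive = only one of the two criteria met; inactive = mean below 50 and not all replicates reaching 50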;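 note: 0% = plate neutral controls and 100% = maraviroc near 300 nM; one replicate is shown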
Yeast UUG start – yeast start codon fidelity modulation | S. cerevisiae UUG-firefly luciferase reporter, luminescence/redox ratio | activity score, % at 18.7 µM | 350,000 compounds, 0.13% hits | AID 602363;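 active = replicate mean at a twofold rise or more, about +100% in these data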;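 note: firefly luciferase made from a UUG start codon reports start codon fidelity; reporter light over untreated wells divided by growth signal over untreated wells; some hits fall short of that in this replicate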
MT1-MMP act inh – MT1-MMP (human) activation inhibition; HT1080 RFP-PRO-GFP cells, GFP/RFP ratio fluorescence, overnight; percent of plate control window, DMSO zero; GFP/RFP ratio change, % at 20 µM; 360,000 compounds, 0.061% hits;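 active = GFP/RFP ratio change of at least 30% with cell ATP level not reduced by more than half and red fluorescence within 50% of control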; note: strong numbers were not always called active
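Test system: HT1080 RFP-PRO-GFP cells; Benchmarks: DMSO and RFP-L50D-GFP cell wells; Timing: cells overnight before dosing, compound overnight, 37 °C, 5% CO2; Compound: one 20 µM compound dose with 1% DMSO; Read-out: GFP/RFP fluorescence ratio.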
eIF4H inh – inhibitors of RNA binding by human eIF4H; eIF4H fluorescence polarization binding assay; inhibition, % at 35 µM; 290,000 compounds, 0.94% hits;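 active = 50% or more with normal probe brightness, or confirmed in later tests; inconclusive = above 50% with abnormal brightness, or retests that disagree; inactive = below 50% or failed in later tests; about a fifth of its hits are not listed in these tables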;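 note: calls also rest on retests at 20 µM and on dose response follow-up; 0% = protein and probe with vehicle and 100% = probe without protein; strong numbers were not always called active; many hits fall short of the cut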
CSC inhib – blocks cancer stem cells; cancer stem cell-like cells viability, luminescence; inhibition, % at 7.5 µM; 300,000 compounds, 1.1% hits;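 active = mean at 75% or more and at least half the replicates too; inconclusive = mean and replicates disagree; tested in HMLE shEcad cells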;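 note: 0% = median of negative and 100% = median of positive control wells; the first replicate is given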
Rce1 inh – yeast Ras-converting enzyme inhibition; Q03530; yeast membranes, quenched prenylated peptide cleavage fluorescence; calls only; 290,000 compounds, 0.27% hits; AID 2563;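 active = fall in fluorescence gain of 50% or more versus controls, with final raw signal at or below 3038400; inconclusive = same 50% fall but final raw signal above 3038400; inactive = fall in fluorescence gain under 50%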;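 note: plate controls were neutral control wells for no effect and wells lacking membranes for full effect; tested at 10 µM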
Target sequence (Q03530 whole entry, looked up): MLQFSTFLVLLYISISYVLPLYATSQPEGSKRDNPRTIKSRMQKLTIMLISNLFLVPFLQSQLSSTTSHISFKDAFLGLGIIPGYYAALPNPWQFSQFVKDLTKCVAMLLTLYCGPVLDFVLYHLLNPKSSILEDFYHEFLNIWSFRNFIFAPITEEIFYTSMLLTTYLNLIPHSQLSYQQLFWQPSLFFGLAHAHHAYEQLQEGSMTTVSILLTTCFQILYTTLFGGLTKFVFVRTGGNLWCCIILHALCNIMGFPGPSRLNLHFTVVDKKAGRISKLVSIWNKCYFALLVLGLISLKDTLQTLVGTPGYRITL
MT1-MMP act inh RFP – further read-out of MT1-MMP act inh, marked with its call; RFP signal change, %; measured here: RFP expression control read;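 0 = vehicle wells; hits needed this value within 50% of zero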
* marks the source's active call; other numbers are inactive results; i = inactive; ? = inconclusive; · = no result given.

SMILES	PABP polyA inh	HIV Env fusion	Yeast UUG start	MT1-MMP act inh	MT1-MMP act inh RFP	eIF4H inh	CSC inhib	Rce1 inh
COc1ccc(CN2CCNC(=O)C2CC(=O)NCCc2nc(C)c(C)s2)c(OC)c1 (configuration not stated)	0	21	17	-6	2	10	-8	i
COc1ccc(CCNC(=O)C2CCN(C(=O)c3ccc(Cl)cc3)CC2)cc1	10	12	0	0	1	0	1	i
COc1ccccc1-c1nnc(SCC(=O)NCc2cccs2)n1N	-8	22	·	-1	3	5	2	i
CCCC(C)NC(=O)c1cccc(Oc2ccccc2)c1 (configuration not stated)	-2	-1	-7	-1	1	-1	10	i
CCN(CC)S(=O)(=O)c1cccc(C(=O)OCC(=O)NCc2ccccc2OC)c1	·	-9	24	-3	-1	·	-11	i
COc1ccc(NC(=O)C2Cc3c(-c4ccc5c(c4)OCO5)ccnc3O2)cc1 (configuration not stated)	·	-166	-2	-4	-7	·	·	·
Clc1ccc(/C=N/Nc2nnc(-c3ncc[nH]3)c3ccccc23)cc1	-8	-231	-37	10	3	9	-5	i
O=C1C2C3C=CC(CC3)C2C(=O)N1c1cccc(Br)c1 (configuration not stated)	6	9	-13	-3	-2	14	21	i
C=CCNC(=O)C1CC2Cn3c(nc4cc(Cl)c(Cl)cc43)C2N1C (configuration not stated)	·	·	-15	0	1	·	-2	i
COCc1cc(C)nc(N2CCOCC2)c1C#N	-1	-15	-16	2	2	3	8	i
Cc1cc(C)cc(Oc2ccccc2/C=C\C(=O)O)c1	-10	-2	-1	0	2	3	-11	i
CCCc1cc(=O)[nH]c(SCC(=O)N2CCN(S(=O)(=O)c3ccc4ccccc4c3)CC2)n1	-13	-6	·	5	-2	-9	-1	i
Cc1ccc(C)c(N2CCN(S(=O)(=O)c3cn(C)cn3)CC2)c1	2	-1	8	-1	2	-12	9	i
CCOC(=O)C1CCN(C(=O)c2cccnc2Oc2ccc(Cl)cc2)CC1	0	17	-6	-1	3	-8	-2	i
CCOc1ccc(S(=O)(=O)NCc2csc(C)n2)cc1	5	·	-2	3	-4	-4	0	i
CCn1cc(CN2CCC(C(=O)Nc3cccc(-c4cccc(Cl)c4)c3)CC2)c(C)n1	-13	0	12	5	-1	-7	0	i
CCOC(=O)C1=NNC2(CC(=O)N(c3cccc(C)c3)C2=O)C1 (configuration not stated)	7	-7	·	-1	5	-10	-20	i
O=C(c1ccc(S(=O)(=O)NCC2CCCO2)cc1)N1CCc2ccccc21 (configuration not stated)	10	·	-8	-3	-19	-3	·	i
COc1cccc(/C=N/n2c(C3CCCCC3)n[nH]c2=S)c1	-6	26	-16	-9	-7	3	·	i
CCCc1nnc(SCCSc2nnc(CCC)n2N)n1N	-9	-63	-12	-2	-4	-3	-21	i
Cc1ccc(NC(=O)COC(=O)[C@@H]2CCCN2C(=O)c2cccs2)cc1S(=O)(=O)N(C)C	7	21	7	4	6	-13	-1	i
COc1cccc(CN2CC(C(=O)NC3CCCCCC3)CCC2=O)c1 (configuration not stated)	28	-10	-19	2	-3	-9	-3	i
COC(=O)c1[nH]c2ccccc2c1NC(=O)C(C)N1CC(C)OC(C)C1 (configuration not stated)	-5	-13	-22	5	6	-6	-9	i
S=C(NCC1CCCO1)N1CCc2ccccc2C1 (configuration not stated)	-4	-89	-22	-1	-3	-9	7	i
O=C(NCCc1ccccc1)c1ccc(-c2ccc(F)c(F)c2)c2ccoc12	·	-16	0	-1	-2	·	·	·
O=C(NCc1ccc(Cl)c(Cl)c1)c1cc(C2CCCCN2C(=O)c2ccccc2)on1 (configuration not stated)	·	-21	-10	-8	-14	·	·	·
COc1cc(C2C3=C(CCCC3=O)OC3=C2C(=O)CCC3)ccc1OCC(=O)Nc1ccccc1	-10	1	-16	-4	-3	14	-3	i
CCc1nc2ccc(C(=O)NCC3CCCCC3)cn2c1N(C)C(=O)c1cccc(OC)c1	·	-32	-16	-4	-4	·	·	·
COc1ccc(Oc2ccc(C(F)(F)F)cc2NC(=O)c2ccc(OC)cc2)cc1	-13	19	·	-2	-2	-5	24	i
COc1cccc(CC(=O)OCC(=O)NNC(=O)c2ccc([N+](=O)[O-])cc2)c1	9	-35	-7	1	2	-4	-11	i
CCOc1ccc(CCNC(=O)c2ccc3nc(N4CCOCC4)sc3c2)cc1OCC	8	2	-14	7	-7	-7	-9	i
Cc1cc(-c2ccccc2)nn1-c1nc2c(c(=O)[nH]c(=O)n2C)n1C	-6	·	-22	3	2	0	-7	i
Cc1c(Cl)ccc2sc(NC(=O)c3ccco3)nc12	8	-154	-25	1	-8	-10	·	i
COc1ccc(C2=NN(C(=O)c3cccs3)C(c3ccc(OC)cc3)C2)cc1 (configuration not stated)	-3	6	·	-3	-2	-2	·	i
CCn1c(SCC(=O)Nc2nc3ccc(OC)cc3s2)nnc1-c1ccoc1C	-15	-101	10	5	-3	-10	1	·
O=C(NCCCN1CCOCC1)c1ccc(CS(=O)(=O)c2ccc(Br)cc2)o1	4	-23	-9	1	4	2	29	i
CC12CN3CC(C)(CN(C1)C3c1ccc([N+](=O)[O-])o1)C2=O (configuration not stated)	9	-62	·	1	1	6	-17	i
COc1ccc(C(=O)OCC(=O)NC(C)CCc2ccccc2)c(OC)c1 (configuration not stated)	-2	-3	11	-4	-3	-5	2	i
Cc1ccc(S(=O)(=O)NC2(C(F)(F)F)NC(=O)N(Cc3ccccc3)C2=O)cc1 (configuration not stated)	9	-4	-4	-1	0	0	-7	i
CCCCCCCOC(=O)C1=C(C)Nc2ncnn2C1c1cccs1 (configuration not stated)	5	17	·	-4	-20	3	-4	i
COC(c1ccccc1)c1nnc(CCC(=O)NC2C3CC4CC(C3)CC2C4)o1 (configuration not stated)	1	-13	·	3	7	-1	-8	i
CCOC(=O)c1cnc2c(C)cccc2c1Nc1ccc(N2CCOCC2)cc1	0	·	·	·	·	6	-15	i
COC(=O)c1sc(S(=O)(=O)N2CCCCC2)c(C(=O)OC)c1C	-5	28	3	-2	-4	-10	-6	i
S=C(NCc1ccccc1)NCC1COc2ccccc2O1 (configuration not stated)	-13	4	-32	19	-1	-7	-16	i
O=C(O)C1CC=CCC1C(=O)NNc1c(Cl)cc(Cl)cc1Cl (configuration not stated)	-2	9	-11	9	8	-4	-5	·
O=C(Cn1c(C(F)(F)F)nc2ccccc21)c1ccc(F)cc1	1	·	-7	1	-6	-9	2	i
CCN(CC)C(=O)CSc1nc2sc3c(c2c(=O)n1CCCOC)CCC3	-1	1	-13	-1	-2	-1	-4	i
c1ccc(-n2c(SCC3CCCCO3)nnc2-c2cccs2)cc1 (configuration not stated)	-4	·	-20	-9	-10	-7	31	i
CC1=CC(=O)O[C@@H]1[C@@]1(C)C[C@H]2OC(=O)C[C@H]3[C@@H](C)C(=O)C(O)=C1[C@@]23CO	·	·	-2	2	5	·	-10	i
COc1ccc(OC)c(/C=N/NC(=O)c2cc[n+](Cc3ccccc3)cc2)c1	6	2	-7	-3	5	-5	4	i
CCc1ccc(/C=N/NC(=S)NCCc2ccccc2)cc1	0	·	-13	1	1	3	-13	i
CCN(CC)C(=O)C1=C(C)Nc2nc3ccccc3n2C1c1cccc(OC)c1 (configuration not stated)	-12	-32	·	0	6	-13	-14	i
CSc1ccc(Cl)c(C(=O)Nc2ccc(C)cn2)c1	1	-29	4	-1	-6	-2	·	i
O=C(NCC(c1ccco1)N1CCc2ccccc2C1)c1ccc(Cl)c([N+](=O)[O-])c1 (configuration not stated)	·	-4	3	-3	4	·	-4	i
CC(=O)c1c(C)[nH]c(C(=O)OCC(=O)Nc2ccc3[nH]c(=O)[nH]c3c2)c1C	·	·	-8	5	3	·	-3	i
CCCn1c(NCc2ccccn2)nc2ccccc21	0	-25	·	6	4	2	-2	i
Clc1ccc(-c2csc(NNC3=NCCCCC3)n2)cc1	1	-170	-19	11	8	-8	16	i
O=C(Nc1ccc(Cl)c(Cl)c1)Nc1nnc(CSc2ccccc2)s1	21	·	-18	-18	-39	-7	44	i
COc1cccc(CN(CC(=O)NCC2CCCO2)C(=O)CNS(=O)(=O)c2ccccc2)c1 (configuration not stated)	·	·	-8	3	-1	·	8	i
CCN(CC)C(=O)Cn1cc(C(=O)C(=O)N2CCN(Cc3ccccc3)CC2)c2ccccc21	-3	8	·	2	0	-12	3	i

Compound profiles, from the list above:
COc1cc(C2C3=C(CCCC3=O)OC3=C2C(=O)CCC3)ccc1OCC(=O)Nc1ccccc1 across the screens: PABP polyA inh = -10; HIV Env fusion = 1; Yeast UUG start = -16; MT1-MMP act inh = -4; MT1-MMP act inh RFP = -3; eIF4H inh = 14; CSC inhib = -3; Rce1 inh = i
COc1ccc(CN2CCNC(=O)C2CC(=O)NCCc2nc(C)c(C)s2)c(OC)c1 (configuration not stated) across the screens: PABP polyA inh = 0; HIV Env fusion = 21; Yeast UUG start = 17; MT1-MMP act inh = -6; MT1-MMP act inh RFP = 2; eIF4H inh = 10; CSC inhib = -8; Rce1 inh = i

(further entries)
SMILES	PABP polyA inh	HIV Env fusion	Yeast UUG start	MT1-MMP act inh	MT1-MMP act inh RFP	eIF4H inh	CSC inhib	Rce1 inh
CCOc1ncccc1C(=O)OCC(=O)NCc1ccc(C(=O)OC)cc1	·	-10	-16	3	3	·	10	·
Cc1ccc2c(c1)N(C(=O)CCC(=O)O)CCO2	-6	17	-8	2	5	-8	-7	i
COC(=O)c1cc(CNC(=O)c2ccccc2OCc2c(C)noc2C)ccc1OC	1	·	-5	-3	-1	-12	-20	i
CCOC(=O)N1CCN(C(=O)c2ccc(CS(=O)Cc3ccc(C)cc3)o2)CC1 (configuration not stated)	-2	9	-16	3	3	-3	-1	i
CCC(CC)CN1CCC(CN2CCNC(=O)C2=O)CC1	·	-5	-8	3	8	·	·	·
COc1ccc(NC(=O)c2nc[nH]c2C(=O)N[C@@H](CC(C)C)C(=O)OC(C)(C)C)cc1	-3	?	-11	-7	-9	10	133*	i
COc1ccc(/C=N/NC(=O)c2c(-c3ccccc3)noc2C)cc1	3	·	1	-2	-5	4	0	i
O=C(Nc1ccc(F)cc1F)Nc1ccccc1C(=O)NCCN1CCNC1=O	-6	-1	-25	0	-2	-1	-7	i
COc1ccccc1C(=O)NCC(=O)NNc1ncnc(N)c1[N+](=O)[O-]	14	·	·	·	·	9	7	i
Cc1ccc(NC(=O)[C@H](NC(=O)[C@@H]2Cc3ccccc3CN2)c2ccccc2)cc1C	3	0	-6	1	0	-8	-15	i
Cc1ccc(NC2=NCC(=O)N2Cc2ccc3c(c2)OCO3)cc1	32	·	-6	6	5	7	-6	i
COc1ccccc1Nc1nc2nonc2nc1N1CCC(C)CC1	-13	18	·	1	1	9	·	i
Cc1ccc(C(=O)Nc2nc(-c3ccccn3)cs2)o1	23	24	·	9	5	34	31	i
CC(C)N(CCCNC(=O)Cn1ncc2c([nH]c3ccccc32)c1=O)Cc1ccccc1	-5	2	-6	4	7	-6	2	i
COc1ccccc1NS(=O)(=O)c1cc(NC(=O)CC(C)(C)C)ccc1N1CCOCC1	-12	7	0	-5	-6	6	-3	i
CC(=O)Nc1ccc(S(=O)(=O)N2CCN(c3nc(NC4CCCC4)c4ccccc4n3)CC2)cc1	-18	·	-5	-1	-6	-3	-3	i
Cc1ccc(-n2c(SCC(=O)N/N=C/c3ccc(C)s3)nnc2-c2ccccc2)cc1	5	12	·	3	2	11	7	i
COc1ccc(CC(=O)Nc2c(C(N)=O)oc3ccccc23)cc1OC	-3	-16	-15	2	-5	-2	-2	i

An excerpt, so the mix of outcomes need not match the whole.
